Bioassay records from PubChem.
Env fusion inh: inhibitors of HIV Env-mediated cell fusion | HeLa-JRFL Env/CEM21 cell fusion, luciferase | inhibition, % at 12.3 µM | actives 1.1% (n = 360,000);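 active = mean replicate inhibition score of at least 50 and every replicate individually at or above 50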;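 also: 0% = plate neutral controls and 100% = maraviroc near 300 nM; one replicate is shown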
Rce1 inh: yeast Ras-converting enzyme inhibition | AID 2563 | actives 0.27% (n = 290,000) | Q03530 | calls only | yeast membranes, quenched prenylated peptide cleavage fluorescence;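 active = fall in fluorescence gain of 50% or more versus controls, with final raw signal at or below 3038400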;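 also: plate controls were neutral control wells for no effect and wells lacking membranes for full effect; tested at 10 µM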
Target sequence (Q03530 whole entry, looked up): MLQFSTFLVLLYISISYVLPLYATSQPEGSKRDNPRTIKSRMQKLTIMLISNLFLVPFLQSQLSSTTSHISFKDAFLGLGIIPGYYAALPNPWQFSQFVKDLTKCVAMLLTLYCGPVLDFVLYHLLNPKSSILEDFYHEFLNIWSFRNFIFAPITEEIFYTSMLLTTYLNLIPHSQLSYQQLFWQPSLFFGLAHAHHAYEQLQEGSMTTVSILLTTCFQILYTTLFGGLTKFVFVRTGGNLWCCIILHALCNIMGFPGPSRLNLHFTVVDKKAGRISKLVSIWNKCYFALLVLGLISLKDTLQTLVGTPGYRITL
MT1-MMP act inh: MT1-MMP (human) activation inhibition; GFP/RFP ratio change, % at 20 µM; actives 0.061% (n = 360,000); P50281; HT1080 RFP-PRO-GFP cells, GFP/RFP ratio fluorescence, overnight; percent of plate control window, DMSO zero;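 active = GFP/RFP ratio change of at least 30% with cell ATP level not reduced by more than half and red fluorescence within 50% of control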; also: strong numbers were not always called active
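Assay system: HT1080 RFP-PRO-GFP cells | Dosing: 20 µM single dose, 1% DMSO | Incubation: Cells overnight before dosing, compound overnight, 37 °C, 5% CO2 | Evaluation: GFP/RFP fluorescence ratio | Control set: DMSO-only wells and HT1080 RFP-L50D-GFP cell wells as references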
CSC inhib: blocks cancer stem cells; inhibition, % at 7.5 µM; actives 1.1% (n = 300,000); cancer stem cell-like cells viability, luminescence;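 active = mean at 75% or more and at least half the replicates too; tested in HMLE shEcad cells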;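 also: 0% = median of negative and 100% = median of positive control wells; the first replicate is given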
eIF4H inh: inhibitors of RNA binding by human eIF4H | Q15056 | eIF4H fluorescence polarization binding assay | inhibition, % at 35 µM | actives 0.94% (n = 290,000);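 active = 50% or more with normal probe brightness, or confirmed in later tests; about a fifth of its hits are not listed in these tables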;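 also: calls also rest on retests at 20 µM and on dose response follow-up; 0% = protein and probe with vehicle and 100% = probe without protein; strong numbers were not always called active; many hits fall short of the cut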
Yeast UUG start: modulators of start codon recognition fidelity in yeast | S. cerevisiae UUG-firefly luciferase reporter, luminescence/redox ratio | activity score, % at 18.7 µM | actives 0.13% (n = 350,000);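 active = replicate mean at a twofold rise or more, about +100% in these data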;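 also: firefly luciferase made from a UUG start codon reports start codon fidelity; reporter light over untreated wells divided by growth signal over untreated wells; some hits fall short of that in this replicate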
PABP FP inh: blocks human PABP binding to poly(A) RNA | inhibition, % at 35 µM | actives 1% (n = 290,000) | AID 2014 | fluorescence polarization;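 active = 50% or more with normal probe brightness, or confirmed in later tests; about a fifth of its hits are not listed in these tables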;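 also: calls also rest on retests at 20 µM and on dose response follow-up; controls were probe without protein and protein plus probe with vehicle; some compounds called inactive have numbers as strong as hits; many hits fall short of the cut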
Target sequence (P11940 whole entry, looked up): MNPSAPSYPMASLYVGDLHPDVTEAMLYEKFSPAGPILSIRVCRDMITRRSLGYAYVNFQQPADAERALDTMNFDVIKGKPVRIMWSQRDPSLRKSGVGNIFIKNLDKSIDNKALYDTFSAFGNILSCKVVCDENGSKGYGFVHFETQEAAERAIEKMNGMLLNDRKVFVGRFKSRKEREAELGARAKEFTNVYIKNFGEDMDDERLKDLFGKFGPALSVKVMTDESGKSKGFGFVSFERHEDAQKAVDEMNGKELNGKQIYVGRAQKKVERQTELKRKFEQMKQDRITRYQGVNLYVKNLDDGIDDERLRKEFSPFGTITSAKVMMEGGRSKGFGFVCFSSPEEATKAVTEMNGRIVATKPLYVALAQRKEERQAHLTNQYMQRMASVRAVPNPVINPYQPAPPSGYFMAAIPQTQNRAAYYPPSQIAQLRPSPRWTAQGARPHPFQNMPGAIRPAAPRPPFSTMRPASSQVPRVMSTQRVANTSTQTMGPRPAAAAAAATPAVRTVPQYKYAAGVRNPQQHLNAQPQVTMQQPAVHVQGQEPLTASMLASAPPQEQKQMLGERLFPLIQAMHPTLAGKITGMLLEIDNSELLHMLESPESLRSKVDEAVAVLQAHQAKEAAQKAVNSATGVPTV
eIF4H inh retest: further read-out of eIF4H inh, marked with its call; inhibition, %; compound at 20 µM; confirmation average;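 mean of two retest wells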
PABP FP inh retest: second read-out of PABP FP inh, no call of its own (marks repeat the call); inhibition, %; compound at 20 µM; confirmation repeats;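 mean of two retest wells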
MT1-MMP act inh RFP: further read-out of MT1-MMP act inh, marked with its call; RFP signal change, %; measured here: RFP expression control read;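 0 = vehicle wells; hits needed this value within 50% of zero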
The depositor's hits bear a star; i = inactive; . = no result given; + = active, no number; & = joins results of further samples; [ ] = another dose, or the depositor's remark. Only part of the results is shown, so the mix of outcomes need not match the whole.

SMILES	Env fusion inh	Rce1 inh	MT1-MMP act inh	MT1-MMP act inh RFP	CSC inhib	eIF4H inh	Yeast UUG start	PABP FP inh	others
CCC(CC)C(=O)NCCc1cc2c(OC)ccc(OC)c2[nH]c1=O	.	i	5	4	2	-12	3	-11
COCCC1CCCCN1C(=O)c1cc(COc2cccc(C(C)=O)c2)on1 (centres undefined)	-26	i	4	-19	-13	-7	-6	-5
CCOC(=O)C1C2C=CC3(CN(c4ccc(Cl)c(F)c4)C(=O)C13)O2 (centres undefined)	-10	i	7	9	-20	-2	-7	-16
COc1ccc(-c2cc(C(=O)Nc3ccc4c(c3)OCO4)no2)cc1OC	-3	i	2	4	17	6	-12	1
COc1ccc(OC)c(CCNC(=O)CSc2ccsc2[N+](=O)[O-])c1	-11	i	1	-1	.	13	-14	1
Cc1ccc(C(=O)OCC(=O)NC(C)C)cc1S(=O)(=O)N1CCOCC1	-14	i	5	1	-9	6	-17	14
CC(C)(C)OC(=O)NC(=NCCCc1cn(CC(=O)N2CCN(C(=O)OC(C)(C)C)CC2)nn1)NC(=O)OC(C)(C)C	-10	i	-1	3	5	-12	1	-17
O=C(NCC1CCCO1)c1cc2c([nH]c3ccccc32)c(-c2cccc(Br)c2)n1 (centres undefined)	.	i	-17	-25	34	-14	-6	-2
CCCCc1nc2sc3c(SCC(=O)NCc4ccco4)ncnc3c2c2c1CCC2	-119	i	-2	-7	.	28	-7	-8
C/C(=N\NC(=O)c1ccncc1)c1cccc(NC(=O)c2ccc(Cl)s2)c1	-89	i	-9	-4	-1	-16	-14	-6
NC(=S)N/N=C/c1coc2ccc(Br)cc2c1=O	13	.	-17	-8	-2	-16	-21	-16
O=C1CCC(C(=O)N2CCN(c3cnccn3)CC2)CN1CCc1ccccc1 (centres undefined)	14	.	4	4	.	.	0	.
O[C@H]1C[C@H](c2ccccc2)N(CC2CCCCC2)C[C@@H]1n1cc(C2CC2)nn1	-36	.	-5	-8	.	.	-9	.
O=C(N/N=C/c1cc2ccccc2[nH]1)c1ccccc1Cl	2	i	-1	-3	6	0	-15	-8
COc1ccc(NC(=O)N(C)C[C@H]2Oc3ncc(C#C[C@@H](C)O)cc3C(=O)N([C@H](C)CO)C[C@H]2C)cc1	-10&-19[16.7 µM]	.	5	4	.	.	-26&31&-8	.
CCCc1ccc(S(=O)(=O)N(C)S(=O)(=O)c2ccc(F)cc2)cc1	-7	i	-1	-4	34	4	-14	4
CC(CCC(C)C(C)(C)C)[C@@H]1CC[C@H]2C3C[C@H](OS(O)(=S)=S)[C@H]4C[C@H](OS(O)(=S)=S)[C@@H](OS(O)(=S)=S)C[C@]4(C)[C@H]3CC[C@]12C (some centres undefined) (tested in a mixture with another compound)	.	.	13	9	98*	.	-30	.
C=CCCC(=O)Nc1nc(C)c(-c2csc(Nc3ccccc3OC)n2)s1	6	i	0	-11	55	-2	-12	-4
Cc1ccc2nc(N3CCN(Cc4ccc(F)cc4)C3=O)c(C)cc2c1	-111	i	1	0	18	-3	-19	7
COc1cc(/C=C2\SC(=Nc3ccc(N4CCOCC4)cc3)N(C)C2=O)ccc1OC(C)C(=O)O (centres undefined)	6	i	-2	6	16	-2	.	0
Cc1ccccc1Nc1nc(N)nc(CSc2nnnn2-c2ccccc2)n1	.	i	-2	-4	-6	-5	.	6
COc1ccc(NC(=O)CO/N=C2/CCCc3nonc32)c(OC)c1	10	i	-3	-2	-4	8	.	-9
CSc1nnc(C)c(=O)n1COC(=O)COc1ccc(Cl)cc1	-7	i	-3	-1	-30	3	.	-6
Cc1ccc(C)c(OCC(=O)Nc2nonc2NC(=O)COc2cc(C)ccc2C)c1	68*	i	1	-3	19	-5	5	-4
O=C1c2ccccc2C(Nc2ccc3c(c2)OCCO3)N1Cc1ccccc1 (centres undefined)	.	i	-2	-6	1	-8	-5	-9
COc1ccccc1C(=O)N1CCN(C2CCN(Cc3ccccc3)CC2)CC1	.	i	-1	7	22	-2	-9	13
Cc1ccc(-c2cc(C(=O)N/N=C/c3ccc(Cl)cc3)n[nH]2)o1	5	.	1	2	32	-8	6	-12
COc1ccc(CN(Cc2cccnc2)S(=O)(=O)c2ccc(-n3cnnn3)c(C)c2)cc1OC	-10	i	5	5	1	0	-3	-2
O=C1NC2=C(C(=O)CCC2)C(c2ccc3ncccc3c2)N1 (centres undefined)	.	i	5	2	-1	-8	-15	-1
O=C(c1ccccc1)c1c[nH]c(C(=O)NCCCN2CCOCC2)c1	-1	i	1	1	-13	3	-7	3
Cn1c2ccc(Cl)cc2c2nc3ccccc3nc21	-30	i	2	3	-3	3	13	25
Cn1nccc1-c1coc2c(C(=O)NCc3ccccc3)cccc12	10	.	0	-12	.	.	7	.
Nc1cccc(CCc2ccncc2)c1	-21	i	0	-2	35	-7	-20	1
CCOC(=O)C[n+]1c(C)csc1C	-110	i	3	4	-8	-1	-16	6
Cc1cccc(NC(=O)CSCC(=O)Nc2ccccc2C(=O)NC2CC2)c1	10	i	0	-4	2	.	-15	.
O=C(Nc1cc2c(oc1=O)CCCC2=O)c1ccc(Cl)cc1	-66	i	0	0	.	74*	-34	50*	eIF4H inh retest=95*;PABP FP inh retest=82*
O=C(CNC(=O)c1ccc(Br)o1)NCc1ccccc1	-3	i	3	5	5	-7	8	2
CC(C(=O)Nc1sc2c(c1C(=O)NCc1ccco1)CCCC2)N1C(=O)c2ccccc2C1=O (centres undefined)	-91	i	-1	1	-9	3	-12	2
CCC1(c2ccc(F)cc2)NC(=O)N(CC(=O)N2CCc3ccccc3C2)C1=O (centres undefined)	2	i	-1	-1	-7	.	.	.
Cc1ccc(SCCn2nc(C(=O)O)c3ccccc3c2=O)cc1	4	i	0	2	7	-6	.	12
COc1ccccc1N1CCN(C(=O)c2ccc(S(=O)(=O)N3CCCCC3)cc2)CC1	.	i	3	-4	-15	-8	-29	-4
CCCC(=O)Nc1cccc(-c2nc3cc(C)c(C)cc3o2)c1	.	i	0	-2	17	-3	-11	0
COc1ccc(NC(=O)NCc2ccccn2)cc1OC	-18	i	8	19	-3	4	-26	5
C/C(=N\NC(=S)NCCc1ccccc1)c1ccc(Cl)cc1Cl	4	i	1	1	57	-9	-27	0
C/C(=N\NC(=O)c1ccc(-c2ccccc2)cc1)C1C(=O)c2ccccc2C1=O	47	i	6	-19	67	11	.	3
C(=N\N1CCN(C2c3ccccc3-c3ccccc32)CC1)/c1ccncc1	.	i	-8	-13	13	8	.	6
O=[N+]([O-])c1ccccc1NCCNc1ncc(C(F)(F)F)cc1Cl	.	i	5	5	5	-2	.	5
CN1C(=O)c2ccc(C(=O)Nc3ccccc3O)cc2C1=O	12	i	2	1	-7	3	-26	-6
CCOc1ccc(NC(=O)CSc2nc3ccccc3c(=O)n2CCCC(=O)NCCCN2CCCC2=O)cc1	-14	i	0	-1	8	-9	6	-9
CCN1CSC(=S)N(Cc2ccccc2)C1	0	i	-2	-2	18	18	.	13
COc1ccc(COC(=O)CCS(=O)(=O)c2ccc(C)cc2)cc1	-5	i	-1	3	-1	.	.	.
CCOc1ccc(NC(=O)C(=O)NCCCn2ccnc2)cc1	.	i	0	1	.	5	-16	2
CCc1ccccc1NC(=O)C1CCCN(c2ncccn2)C1 (centres undefined)	13	i	-1	1	-10	-9	-2	-3
CC(=O)Nc1ccc(NC(=O)C(C)OC(=O)CCCN2C(=O)c3cccc4cccc(c34)C2=O)cc1 (centres undefined)	.	i	0	2	10	.	-10	.
O=S(=O)(Nc1ccc(N2CCOCC2)cc1)c1c(F)cc(F)cc1Br	6	i	0	-1	.	13	-9	-4
O=C(COC(=O)Cc1cccc(C(F)(F)F)c1)NC1CC1	1	i	4	6	-5	2	.	-5
COc1ccc(OCC(=O)Nc2ccc(NC(=O)c3ccccc3Cl)c(OC)c2)cc1	-7	i	4	2	0	-3	-21	11
COc1ccc(NC(C)C(=O)Nc2ccc(C(C)(C)C)cc2)cc1Cl (centres undefined)	-9	i	3	-8	.	-11	-10	4
CN1C(=O)C(CC(=O)Nc2ccc(F)cc2)N(NC(=O)c2cccc(F)c2)C1=S (centres undefined)	18	i	0	1	-1	3	.	13
Cc1cc2nc(-c3ccccc3)c(CC(C)(C)C)n2c(C)c1Br	5	.	-1	-6	.	.	5	.

A draw from above in order of count of non-hydrogen atoms, high to low:
SMILES	Env fusion inh	Rce1 inh	MT1-MMP act inh	MT1-MMP act inh RFP	CSC inhib	eIF4H inh	Yeast UUG start	PABP FP inh	others
CCOc1ccc(NC(=O)CSc2nc3ccccc3c(=O)n2CCCC(=O)NCCCN2CCCC2=O)cc1	-14	i	0	-1	8	-9	6	-9
CC(=O)Nc1ccc(NC(=O)C(C)OC(=O)CCCN2C(=O)c3cccc4cccc(c34)C2=O)cc1 (centres undefined)	.	i	0	2	10	.	-10	.
COc1ccc(NC(C)C(=O)Nc2ccc(C(C)(C)C)cc2)cc1Cl (centres undefined)	-9	i	3	-8	.	-11	-10	4
COc1ccc(COC(=O)CCS(=O)(=O)c2ccc(C)cc2)cc1	-5	i	-1	3	-1	.	.	.
CCc1ccccc1NC(=O)C1CCCN(c2ncccn2)C1 (centres undefined)	13	i	-1	1	-10	-9	-2	-3
O=C(COC(=O)Cc1cccc(C(F)(F)F)c1)NC1CC1	1	i	4	6	-5	2	.	-5

Next records follow.
SMILES	Env fusion inh	Rce1 inh	MT1-MMP act inh	MT1-MMP act inh RFP	CSC inhib	eIF4H inh	Yeast UUG start	PABP FP inh	others
COc1cc(C(C)=O)ccc1OCCCOc1cccc2cccnc12	-20	i	1	0	-12	-16	-8	-6
O=C(NCCC1=CCCCC1)C1CCN(S(=O)(=O)N2CCCC2)CC1	-13	i	0	2	-10	1	-7	-1
CSc1nnc(-c2sc(-c3ccccc3)nc2C)n1C	7	+	-1	0	-10	0	-23	-3
CC(C)[C@H](NC(=O)OCc1ccccc1)C(=O)OCC(=O)N1CCCCC1	-36	.	-1	4	.	.	-10	.
COc1cc(O)c(C(CCN2CCCC2)c2cc(OC)c(OC)c(OC)c2)c(OC)c1 (centres undefined)	-21	i	-3	2	5	-6	-10	0
CCOC(=O)N1CCN(c2ncnc3c2[nH]c2ccc(F)cc23)CC1	64*	i	0	-14	3	-8	-11	-3
NC(=O)C1CCCN1S(=O)(=O)c1ccc2ccccc2c1 (centres undefined)	-8	i	3	3	-5	6	2	1
COc1ccccc1/C=N/NC(=O)c1cccc2ccccc12	-16	i	-3	0	-2	-2	11	14
Cc1cc(NC(=O)CCC(=O)N(c2ccc(F)cc2)C(C(=O)NC2CCCC2)c2cccnc2)no1 (centres undefined)	-1	i	-1	1	.	4	10	-8
CCOc1ccc(/C(=N\O)C(C)NO)cc1 (centres undefined)	.	i	4	3	-8	1	0	12
Cc1csc2nc(CSc3nc4ccccc4o3)cn12	-94	.	3	7	13	14	0	19
CCOC(=O)N1CCN(C(=O)CSc2nc(=O)n3ccccc3n2)CC1	-3	i	6	6	.	.	-5	.
O=c1c2[nH]c3ccccc3c2ncn1CCCn1ccnc1	-39	i	3	-1	17	7	-6	8
C/C(CCC(=O)OC[C@H]1O[C@H](C#Cc2ccccc2)C=C[C@@H]1Oc1ccc(C)cc1)=N\OC[C@@H](O)[C@H]1O[C@@H]2OC(C)(C)O[C@@H]2[C@H]1O	.	i	.	.	-3	-6	.	3
COc1cc(/C=C2\SC(=S)N(NC(=O)c3cccc(O)c3)C2=O)ccc1O	-2	i	-34	56	7	7	-26	-26
O=c1cc(-c2ccc(O)cc2)oc2c(C3OCC(O)C(O)C3O)c(O)c(C3OC(CO)C(O)C(O)C3O)c(O)c12 (centres undefined)	.	.	9	2	-7	7	-19	6
